Resorufin autofl: compounds fluorescent in resorufin spectral region | AID 588 | Compound fluorescence, resorufin region 547/598 nm, buffer; active compounds read high | max dye-equivalent concentration, M | hit rate 0.04% among 59,000; active = above 10 nM dye equivalent; inconclusive = 1 to 10 nM; inactive = 1 nM or less; a few of its hits are not listed in these tables; note: highest value over a series up to 38 µM
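Read-out: intrinsic compound fluorescence at ex 547/em 598 nm after 15 min at RT in pH 8.0 Tris (100 mM). Values expressed as resorufin-equivalent concentration from per-plate standard series.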
TSHR agonist: agonists of human thyroid stimulating hormone receptor. P16473. HEK293-CNG-TSHR cells (CNG channel as cAMP sensor), membrane potential dye, cAMP. Potency, µM (titrated, usually from 57.1 µM), for inactives: at the top dose activation, usual class: activators. hit rate 0.48% among 73,000. AID 926; active = well fitted activation curve of enough size with the parental cells flat; inconclusive = any curve in the parental cells; inactive = parental cells flat and receptor cells flat or falling; note: potency is the fitted concentration of half-maximal effect; % of control where 0% means no effect; weak receptor curves with flat parental cells got no call and are not listed
Target sequence (P16473 whole entry, looked up): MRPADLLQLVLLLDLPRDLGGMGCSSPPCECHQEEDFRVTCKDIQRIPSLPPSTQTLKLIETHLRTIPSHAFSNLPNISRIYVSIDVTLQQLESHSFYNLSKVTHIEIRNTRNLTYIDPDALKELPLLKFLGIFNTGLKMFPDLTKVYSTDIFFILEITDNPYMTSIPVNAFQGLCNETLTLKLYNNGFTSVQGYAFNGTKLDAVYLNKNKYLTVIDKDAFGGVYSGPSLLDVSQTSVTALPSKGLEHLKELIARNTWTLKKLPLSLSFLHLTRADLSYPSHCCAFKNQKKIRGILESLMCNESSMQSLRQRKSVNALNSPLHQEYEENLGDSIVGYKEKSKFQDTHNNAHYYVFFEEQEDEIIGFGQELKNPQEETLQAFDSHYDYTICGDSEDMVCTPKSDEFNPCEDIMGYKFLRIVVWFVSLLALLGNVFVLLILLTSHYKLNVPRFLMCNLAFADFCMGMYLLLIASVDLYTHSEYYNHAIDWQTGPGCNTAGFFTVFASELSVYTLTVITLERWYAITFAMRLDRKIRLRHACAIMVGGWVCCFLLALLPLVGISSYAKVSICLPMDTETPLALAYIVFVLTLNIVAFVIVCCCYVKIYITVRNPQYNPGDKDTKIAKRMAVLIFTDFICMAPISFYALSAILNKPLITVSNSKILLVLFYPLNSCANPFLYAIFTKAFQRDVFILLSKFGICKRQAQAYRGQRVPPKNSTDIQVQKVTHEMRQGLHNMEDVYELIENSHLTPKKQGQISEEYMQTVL
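HEK 293 cells stably expressing TSHR and a cAMP-gated CNG channel; parental CNG-only cells as counterscreen. Cells preloaded 60 min with membrane potential dye plus 100 uM RO 20-1724, then compound 30 min; fluorescence read at 590 nm.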
A488 autofl: compound autofluorescence in A488 spectral region; compound autofluorescence, A488 spectral region, dye equivalency; active compounds read high; max dye equivalency, M; hit rate 0.1% among 59,000; AID 591; active = above 10 nM dye equivalent; inconclusive = 1 to 10 nM; inactive = 1 nM or less; about half of its hits are not listed in these tables;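 note: highest value over a series up to 38 µM; compound alone in buffer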
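Compounds pin-transferred into 100 mM Tris buffer, pH 8.0, incubated 15 min at room temperature, then imaged with 480 nm excitation/540 nm emission filters. Fluorescence converted to Alexa 488 dye-equivalent concentration via an on-plate six-point A488 standard curve.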
AID923: qHTS Assay for Allosteric/Competitive Inhibitors of Caspase-1: Spectroscopic Profiling in AFC Spectral Region; Potency, µM (titrated, usually from 57.5 µM), for the others: at the top dose fluorescence increase, most hits filed as activators; compound fluorescence, AFC spectral region (405/520 nm); almost no hit is shown here; hit rate 1.1% among 75,000; active = well fitted activation curve with a large enough effect; inconclusive = small, poorly fitted or top-dose-only effect;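 note: potency is the fitted concentration of half-maximal effect; 0% is about no effect; scaled to a free AFC standard on each plate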
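Baseline compound fluorescence (AFC region, 405 nm ex/520 nm em) taken from the intercept of kinetic reads with 50 nM caspase-1 and 5 uM Ac-WEHD-AFC; normalized to an on-plate AFC standard curve; compounds titrated up to 57 uM.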
A647 autofl: compound autofluorescence in A647 spectral region; Compound fluorescence, A647 channel (570/671 nm), Tris buffer; max dye-equivalent concentration, M; 59,000 tested, under 10 active; AID 592; active means above 1 µM dye equivalent; inconclusive means 0.1 to 1 µM; inactive means 0.1 µM or less;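 note: values scaled relative to a standard on each plate; highest value over a series up to 38 µM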
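Buffer was dispensed, compounds and Alexa 647 standards were pin-transferred, and plates sat 15 min at room temperature. Intensity at 570/671 nm was then converted to dye-equivalent concentration using the plate's A647 standard curve.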
* marks the source's active call; other numbers are inactive results; i = inactive; ? = inconclusive; nt = no result given; [ ] = remark or other dose. A portion of the library; count on the stated rates, not on these rows.

SMILES | Resorufin autofl | TSHR agonist | A488 autofl | AID923 | A647 autofl
COc1ccc(CCNS(=O)(=O)c2cccc(C(=O)O)c2)cc1OC | i | 5%[11.4 µM] | i | -1.5% | 1e-09
Clc1nc(-c2n[nH]nc2Cl)n[nH]1 | i | nt | i | nt | 4e-08
COc1ccc(CN2CC(C(=O)NCc3cccc(OC)c3)CC2=O)cc1 (centres undefined) | i | 7% | i | -1.4% | 3e-09
COc1cc(NC(=O)C2CCCC2)c(OC)cc1Cl | nt | ? | nt | -0.4% | nt
CCn1nc(NC(=O)c2ccncc2)c2cc3ccc(C)cc3nc21 | i | -9% | i | 6.5% | 1.8e-08
Cc1cc(NC(=O)CSc2nc3ccccc3c(=O)n2CCCC(=O)NCc2ccco2)n[nH]1 | i | 17% | i | -0.9% | 2.9e-08
COc1ccc(C(=O)Nc2ccc(N3CCN(c4ccc(OC)cc4)CC3)c(C#N)c2)cc1 | i | 3%[11.4 µM] | i | -1.6% | 3.2e-09
O=C(NCc1ccccn1)c1cccs1 | nt | 8% | nt | 2.0% | nt
CC(=O)Oc1cc2c(C(C)=O)coc2c2ccccc12 | i | nt | i | -0.9% | 2.3e-08
CC(C)NC(=O)c1cccc(Cn2cc(Cl)cn2)c1 | i | 7% | i | 0.3% | 4e-08
CCN(CC)CCN1C(=O)C(O)=C(C(=O)c2sc(C)nc2C)C1c1cccnc1 (centres undefined) | i | 4% | i | 2.0% | 5.5e-09
CC(CCc1ccccc1)NC(=O)CN1CCN(Cc2ccccc2)C1=O (centres undefined) | i | 7% | i | 0.1% | 1e-09
Cn1c(SCC(=O)O)nc2ccccc2c1=O | i | 2% | i | 0.5% | 3.9e-08
CCOc1ccccc1OCC(=O)NCc1ccco1 | i | -2% | i | 2.0% | 1e-09
C=CCNc1nnc(C)c2ccccc12 | i | 2% | i | -1.3% | 3.5e-08
CCC(=O)Nc1cc2nn(-c3ccc(OC)cc3)nc2cc1C | i | -5% | i | -0.4% | 5.6e-09
CCCn1nnc(NC(=O)c2cc(Br)cc(Br)c2OC)n1 | i | nt | i | nt | 4.7e-08
CCCCCCc1c(O)c2ccccc2[nH]c1=O | i | 6% | i | -0.5% | 4.5e-09
COc1cccc(-n2ccnc2SCC(=O)NCc2ccccc2)c1 | i | 0% | i | 1.0% | 1.1e-09
O=C(CCS(=O)(=O)Cc1ccccc1)NCC1CCCO1 (centres undefined) | i | 2% | i | 0.9% | 1.5e-08
CN(C)S(=O)(=O)c1ccc(C(=O)Nc2ccccn2)cc1 | nt | -4%[11.4 µM] | nt | 5.0% | nt
CN(C)CCCNC(CC(=O)Nc1ccc(Cl)cc1)C(=O)O (centres undefined) | i | -2% | i | 1.4% | 1e-09
Cc1noc(C)c1CSc1nc2sc(C)c(C)c2c(=O)n1C1CCCC1 | i | 14% | i | -2.9% | 2.1e-09
O=C(O)C1CC(=O)N(c2ccc(F)c(F)c2)C1 (centres undefined) | i | ? | i | -0.6% | 3.3e-08
Cn1c(=O)oc2cc(S(=O)(=O)Nc3ccc4c(c3)OCO4)ccc21 | i | -20% | i | -0.2% | 1e-09
CCOC(=O)c1ccc(NC(=O)C2CCN(S(=O)(=O)c3ccccc3)CC2)cc1 | nt | -4% | nt | -0.9% | nt
O=C1CC2CS(=O)(=O)CC2N1C1CCCCC1 (centres undefined) | nt | 2%[11.4 µM] | nt | -0.7% | nt
CCOc1ccc2nc(NC(=O)CN3CCN(c4ccccn4)CC3)sc2c1 | i | ? | i | 0.9% | 3.1e-09
CCOC(=O)N1CCC(NC(=O)c2sc3nc4n(c(=O)c3c2C)CCCC4)CC1 | i | 1% | i | 0.5% | 1e-09
CC1CCN(CCCNC(=O)C2CCC(=O)N2C2CCCC2)CC1 (centres undefined) | i | 3% | i | -1.7% | 1.9e-09
O=C(O)c1[nH]c2ccc(Cl)cc2c1CC(=O)N1CCN(C(=O)c2ccco2)CC1 | i | -4% | i | -0.1% | 1.3e-09
CCOC(=O)N1CCC(c2cc(=O)n3[nH]cc(C(=O)OC)c3n2)CC1 | nt | 1% | nt | -2.8% | nt
CCOC(=O)N1CCN(C(=O)C2CCN(S(=O)(=O)N(CC)CC)CC2)CC1 | i | 6% | i | -1.8% | 9.3e-09
O=C(CSc1nnc(-c2ccc(O)cc2)o1)N1CCOCC1 | i | -13% | i | -0.4% | 2.8e-08
COc1ccccc1S(=O)(=O)Cc1ccc(C(=O)NCc2ccc3c(c2)OCO3)o1 | nt | 6% | nt | -1.2% | nt
COC(=O)c1nnn(CC(=O)Nc2cccc(OC)c2)c1C(=O)OC | i | 1% | i | 3.7% | 1e-09
O=C(CSc1ncnc2ccccc12)N1CCN(c2ccccc2)CC1 | i | 10%[11.4 µM] | i | 2.1% | 1.4e-08
COc1ccc(NC(=O)c2cc3cc(OC)ccc3oc2=N)cc1 | i | 14% | i | 13% | 4e-08
CC1(C)CC(=O)C2=C(C1)Nc1nc(SCCN3CCOCC3)[nH]c(=O)c1C2c1cccs1 (centres undefined) | i | -61%[inhibitor] | i | 0.0% | 3.2e-09
O=C(Nc1ccc(OC(F)F)c(Cl)c1)Nc1ccc2c(c1)OCO2 | i | -19% | i | -2.1% | 1e-09
COc1ccc(S(=O)(=O)n2cnc3cc(C)c(C)cc32)cc1C | nt | ? | nt | -0.3% | nt
Cc1cc2oc(=O)cc(CN3CCCCC3C)c2c(C)c1Cl (centres undefined) | i | ? | i | -1.4% | 4e-09
CC(C)c1ccc(C2CC(=O)N3CN(C)CSC3=C2C#N)cc1 (centres undefined) | nt | -4% | nt | -0.3% | nt
CC(=O)NC(Cc1ccccc1C)C(=O)NC1CCN(c2c3c(nc4ncnn24)CCC3)CC1 (centres undefined) | i | 8% | i | -2.5% | 4.5e-08
O=C(Nc1cccc(S(=O)(=O)C(F)F)c1)c1ccc(Cl)c(S(=O)(=O)N2CCOCC2)c1 | i | nt | i | -2.5% | 3.9e-08
CCCCN(Cc1cc2cc(OC)ccc2[nH]c1=O)C(=O)COc1ccccc1 | i | 19% | i | 3.2% | 2.8e-09
CCn1c2ccccc2c2cc(NC(=O)CSc3nnc(-c4ccccc4OC)n3N)ccc21 | i | 16% | i | -1.6% | 1.5e-08
CCc1ccc(-c2nc(CN3CCC(C(=O)NCc4ccco4)CC3)c(C)o2)cc1 | i | 27% | i | 1.7% | 2e-08
c1ccc(Cc2nn3c(Cn4nnc5ccccc54)nnc3s2)cc1 | i | -2% | i | 3.2% | 1e-09
O=C(OCC(=O)N1CCN(C(=O)c2ccco2)CC1)c1cc(-c2ccccc2)nc2ccccc12 | i | -8% | i | -0.3% | 4.1e-08

Later entries.
SMILES | Resorufin autofl | TSHR agonist | A488 autofl | AID923 | A647 autofl
Cc1ccnc(N2CCC(C(=O)Nc3cccc(C(F)(F)F)c3)CC2)n1 | i | ? | i | 1.4% | 1.1e-08
Cc1cc2nc3[nH]c4c(Cl)cc(Cl)cc4c3nc2cc1C | i | -1%[11.4 µM] | i | -3.6%[11.5 µM] | 1e-09
Cc1nc(NS(=O)(=O)c2ccccc2)sc1NC(=O)OC(C)C | i | nt | i | nt | 1.1e-08
CCn1c(C(=O)N2CCC(C(=O)N3CCN(c4ccccn4)CC3)CC2)cc2sccc21 | nt | ? | nt | 3.8% | nt
COc1ccccc1C(OC(=O)c1cccs1)C(=O)NCc1ccco1 (centres undefined) | i | 24% | i | -1.8% | 2.8e-08
O=C(NO)c1ccccc1 | nt | 2% | nt | -0.8% | nt
CCN1CCCC1CNC(=O)c1cc2c(-c3cccc(OC)c3)nn(C)c2s1 (centres undefined) | i | 5% | i | -0.9% | 1e-09
CC1(C)Cc2ccccc2-c2nnnn21 | nt | 0% | nt | -1.0% | nt
Cc1oc2ccccc2c1-c1cn2c(n1)SCC2 | i | 10% | i | 7.6% | 2.4e-08
O=C(CCC1CCCCC1)Nc1ncn[nH]1 | i | 9% | i | -1.1% | 1e-09
CCCCC(=O)OCCNC(=O)c1cc2ccccc2oc1=O | nt | 7%[11.4 µM] | nt | 1.2% | nt
COc1ccccc1-c1cc(Nc2ccn[nH]2)ncn1 | i | 2% | i | 3.7% | 1e-09
COC(=O)c1cc2ccsc2n1CC(=O)N(C)c1ccccc1 | i | nt | i | 1.2% | 2.1e-08
CC(C)Cn1c(SCC(=O)N2CCN(S(=O)(=O)c3ccccc3)CC2)nc2ccccc21 | i | ? | i | 0.0% | 1.8e-08
CCOC(=O)CN1CC23C=CC(O2)C(C(=O)NC2CCCCC2)C3C1=O (centres undefined) | i | 0% | i | -0.8% | 1e-09
CCOc1ccc2nc(NC(=O)C(CC)Sc3nc(C)cc(=O)[nH]3)sc2c1 (centres undefined) | i | ? | i | -4.3% | 2.1e-08
CCOC(=O)c1c(N)c(C#N)c2n1CCCCC2 | i | 9% | i | 1.0% | 1e-09
CCOC(=O)c1c(-c2ccncc2)csc1N | i | -8% | i | -0.4% | 2.4e-09
OC12CCCCC1C(c1ccc3c(c1)OCO3)N(Cc1ccc(F)cc1)CC2 (centres undefined) | i | ? | i | 0.7% | 1e-09
CN1CC2(C)CN(C(c3ccccc3)c3ccccc3)CC(C)(C1)C2O (centres undefined) | i | nt | i | nt | 1e-09

6 of these compounds, reformatted:
Order of results: Resorufin autofl	TSHR agonist	A488 autofl	AID923	A647 autofl
CCOC(=O)c1c(-c2ccncc2)csc1N
 : i	-8%	i	-0.4%	2.4e-09
CCOc1ccc2nc(NC(=O)C(CC)Sc3nc(C)cc(=O)[nH]3)sc2c1 (centres undefined)
 : i	?	i	-4.3%	2.1e-08
CC(C)Cn1c(SCC(=O)N2CCN(S(=O)(=O)c3ccccc3)CC2)nc2ccccc21
 : i	?	i	0.0%	1.8e-08
CCCCC(=O)OCCNC(=O)c1cc2ccccc2oc1=O
 : nt	7%[11.4 µM]	nt	1.2%	nt
CCOC(=O)CN1CC23C=CC(O2)C(C(=O)NC2CCCCC2)C3C1=O (centres undefined)
 : i	0%	i	-0.8%	1e-09
CN1CC2(C)CN(C(c3ccccc3)c3ccccc3)CC(C)(C1)C2O (centres undefined)
 : i	nt	i	nt	1e-09

(cont.)
SMILES | Resorufin autofl | TSHR agonist | A488 autofl | AID923 | A647 autofl
CCC/C=C(\CCC)C(NS(=O)(=O)c1cccc2cccnc12)c1ccc(C(=O)OC)cc1 (centres undefined) | nt | ? | nt | 0.4% | nt
Cc1ccc(-n2c(SCC(=O)Nc3nccs3)nc3c(c2=O)SCC3)cc1 | i | ? | i | 1.3% | 3.1e-08
Cc1nn(-c2ccccc2)c2c1C(c1ccncc1)C(C#N)=C(N)O2 (centres undefined) | nt | 1% | nt | -0.8% | nt
CO[C@H]1COC(=O)CCC[C@@H](C)[C@H](OC)COC(=O)[C@@H](C)NC(=O)C/C=C\[C@@H]1C | nt | 1%[11.4 µM] | nt | 1.3%[11.5 µM] | nt
CN(C)c1ccc(O)c2c1C[C@H]1C[C@H]3[C@@H](N(C)C)C(=O)C(C(N)=O)=C(O)[C@]3(O)C(=O)C1=C2O | i | -5%[25.6 µM] | i | -1.9%[25.7 µM] | 3.8e-09
Cc1cccc(Nc2ccccc2C(=O)OCC(=O)N2CCOCC2)c1C | i | -15% | i | -0.3% | 2.4e-09
CCOC(=O)c1sc(=NC(=O)c2ccc(OC)c(OC)c2)n(C)c1C | i | 20%[11.4 µM] | i | -0.5% | 9.6e-09
COC(=O)c1ccc2c(c1)nc(C)n2CCO | i | -3% | i | 0.0% | 3.2e-09
OC1(c2cccc(C(F)(F)F)c2)CCN(c2ccc(-c3ccccc3)nn2)CC1 | i | 22% | i | 0.2% | 4.7e-08
CCCOc1ccc(C(=O)Nc2ccc(N3CCN(C(C)=O)CC3)cc2)cc1 | i | -3% | i | -0.1% | 1e-09
COc1c(C)cc(Br)cc1C(=O)Nc1ccc(N2CCN(S(C)(=O)=O)CC2)cc1 | i | -30%[inhibitor] | i | 1.4% | 2e-08

Bioassay records as filed in PubChem BioAssay.
